Screening data from PubChem.
MT1-MMP act inh: blockers of MT1-MMP proenzyme processing, primary screen, HT1080 RFP-PRO-GFP cells, GFP/RFP fluorescence; GFP/RFP ratio fluorescence, overnight; percent of plate control window, DMSO zero; GFP/RFP ratio change, % at 20 µM; hit rate 0.061% among 360,000; AID 651647, 2012;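 active = GFP/RFP ratio change of at least 30% with cell ATP level not reduced by more than half and red fluorescence within 50% of control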; also: strong numbers were not always called active
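Assay system: HT1080 RFP-PRO-GFP cells | Dosing: 20 µM single dose, 1% DMSO | Incubation: Cells overnight before dosing, compound overnight, 37 °C, 5% CO2 | Evaluation: GFP/RFP fluorescence ratio | Control set: DMSO-only wells and HT1080 RFP-L50D-GFP cell wells as references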
Rce1 inhib: yeast Rce1p protease inhibitors, primary screen, biochemical, fluorescence, cell-free homogeneous | CAAX prenyl protease 2 (Saccharomyces cerevisiae (strain ATCC 204508 / S288c)), Q03530 | yeast membranes, quenched prenylated peptide cleavage fluorescence | calls only | hit rate 0.27% among 290,000 | AID 2563, 2010;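 active = fall in fluorescence gain of 50% or more versus controls, with final raw signal at or below 3038400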;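 also: plate controls were neutral control wells for no effect and wells lacking membranes for full effect; tested at 10 µM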
eIF4H FP inh: human eIF4H binding inhibitors, primary screen, translation initiation inhibitor project, biochemical, uHTS, fluorescence polarization; AID 2012, 2009; Eukaryotic translation initiation factor 4H (Homo sapiens), Q15056; hit rate 0.94% among 290,000; eIF4H fluorescence polarization binding assay; inhibition, % at 35 µM;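 active = 50% or more with normal probe brightness, or confirmed in later tests; about a fifth of its hits are not listed in these tables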;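 also: calls also rest on retests at 20 µM and on dose response follow-up; 0% = protein and probe with vehicle and 100% = probe without protein; strong numbers were not always called active; many hits fall short of the cut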
CSC inhib: cancer stem cell viability inhibitors, primary screen, luminescence; cancer stem cell-like cells viability; inhibition, % at 7.5 µM; hit rate 1.1% among 300,000;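 active = mean at 75% or more and at least half the replicates too; tested in HMLE shEcad cells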;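 also: 0% = median of negative and 100% = median of positive control wells; the first replicate is given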
PABP polyA inh: PABP poly(A) RNA binding inhibitors, primary screen, biochemical, fluorescence polarization, uHTS. AID 2014, 2009. hit rate 1% among 290,000. inhibition, % at 35 µM. Polyadenylate-binding protein 1 (Homo sapiens), P11940;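 active = 50% or more with normal probe brightness, or confirmed in later tests; about a fifth of its hits are not listed in these tables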;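 also: calls also rest on retests at 20 µM and on dose response follow-up; controls were probe without protein and protein plus probe with vehicle; some compounds called inactive have numbers as strong as hits; many hits fall short of the cut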
Target sequence (P11940 whole entry, looked up): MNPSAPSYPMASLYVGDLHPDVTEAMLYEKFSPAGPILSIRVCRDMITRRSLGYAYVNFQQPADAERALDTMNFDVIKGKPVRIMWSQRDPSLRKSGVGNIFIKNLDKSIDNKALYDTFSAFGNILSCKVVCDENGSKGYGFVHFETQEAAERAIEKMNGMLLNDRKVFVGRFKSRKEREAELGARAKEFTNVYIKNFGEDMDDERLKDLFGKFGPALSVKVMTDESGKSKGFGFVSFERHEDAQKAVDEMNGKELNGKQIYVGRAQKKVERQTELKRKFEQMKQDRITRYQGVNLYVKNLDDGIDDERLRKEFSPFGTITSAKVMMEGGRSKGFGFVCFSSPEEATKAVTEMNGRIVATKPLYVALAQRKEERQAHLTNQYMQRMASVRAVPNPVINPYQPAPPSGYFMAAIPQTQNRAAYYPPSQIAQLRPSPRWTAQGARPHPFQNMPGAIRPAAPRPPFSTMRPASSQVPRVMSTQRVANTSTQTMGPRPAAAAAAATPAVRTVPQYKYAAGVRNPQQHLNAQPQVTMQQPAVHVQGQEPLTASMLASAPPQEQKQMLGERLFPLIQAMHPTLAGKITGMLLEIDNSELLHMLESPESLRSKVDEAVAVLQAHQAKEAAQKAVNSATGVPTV
UUG fidelity: modulators of yeast start codon fidelity, primary screen, whole organism, S. cerevisiae, single point, plate reader. S. cerevisiae UUG-firefly luciferase reporter, luminescence/redox ratio. activity score, % at 18.7 µM. hit rate 0.13% among 350,000. AID 602363, 2012;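 active = replicate mean at a twofold rise or more, about +100% in these data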;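 also: firefly luciferase made from a UUG start codon reports start codon fidelity; reporter light over untreated wells divided by growth signal over untreated wells; some hits fall short of that in this replicate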
Env fusion inh: inhibitors of HIV-1 Env-driven cell-cell fusion, primary screen, HeLa-JRFL effector, CEM21 target cells, luciferase | inhibition, % at 12.3 µM | AID 651610, 2012 | hit rate 1.1% among 360,000;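 active = mean replicate inhibition score of at least 50 and every replicate individually at or above 50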;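 also: 0% = plate neutral controls and 100% = maraviroc near 300 nM; one replicate is shown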
eIF4H FP inh retest: further read-out of eIF4H FP inh, marked with its call; inhibition, %; compound at 20 µM; confirmation average;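 mean of two retest wells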
PABP polyA inh retest: recorded beside PABP polyA inh, whose call it bears; inhibition, %; compound at 20 µM; confirmation repeats;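 mean of two retest wells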
MT1-MMP act inh RFP: recorded beside MT1-MMP act inh, whose call it bears; RFP signal change, %; measured here: RFP expression control read;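 0 = vehicle wells; hits needed this value within 50% of zero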
Starred values were filed as active, the others as inactive; i = inactive; x = not tested or not shown; & = joins results of further samples.

SMILES | MT1-MMP act inh | MT1-MMP act inh RFP | Rce1 inhib | eIF4H FP inh | CSC inhib | PABP polyA inh | UUG fidelity | Env fusion inh | others
COc1ccc2[nH]c3c(=O)n(CCCCC(=O)N4CCC(C(N)=O)CC4)c(=S)[nH]c3c2c1 | 14 | 5 | i | -2 | -6 | 5 | -24 | x
CCOc1ccccc1C(=O)NC(C(=O)Nc1ccccc1N1CCOCC1)C(C)C (stereo unspecified) | 3 | -2 | i | -4 | 5 | -6 | 6 | -9
Cc1ccsc1C(=O)N1CCC1(C)C(=O)NS(=O)(=O)c1cccc(F)c1 (stereo unspecified) | -2 | 6 | x | x | x | x | 3 | 4
CC(=O)Nc1ccc(S(=O)(=O)NCCSCc2ccccc2Cl)cc1 | 4 | -23 | i | -6 | -10 | 0 | x | x
Clc1ccc(-c2nnc(N3CCOCC3)o2)cc1 | 0 | 4 | i | -1 | 1 | -3 | 4 | -21
COc1cc(/C=C2/CCC/C(=C\c3cc(O)c(OC)c(Cl)c3)C2=O)cc(Cl)c1O | 20 | 75 | i | -2 | 119* | 0 | -17 | 27
CC(C)(C)NC(=O)[C@]1(C)CCC[C@@]2(C)C3CC[C@@]4(C)C[C@]3(CCC21)CC4=O (stereo partly specified) | -5 | -2 | x | x | -3 | x | -10 | 23
COc1ccc(NCc2nnc(SCC(=O)Nc3ccc(OC)cc3)n2C)cc1 | 5 | 7 | i | -4 | -11 | 2 | -11 | 5
C/C(=N\NC(=O)C12CCC(C)(C(=O)O1)C2(C)C)c1ccccc1O (stereo unspecified) | 2 | 0 | i | -10 | -5 | 11 | -9 | 12
CCOC(=O)C(C(=O)OCC)C1N=C(N)N=C2Oc3ccccc3N21 (stereo unspecified) | 12 | 3 | i | 4 | x | 2 | -24 | x
COc1ccc(NC(=S)N(CCCN2CCOCC2)Cc2cn(C)c3ccccc23)cc1 | 8 | 6 | i | -3 | -13 | -2 | x | 2
CC(NC(=S)Nc1ccc(S(=O)(=O)N2CCOCC2)cc1)C1CC2CCC1C2 (stereo unspecified) | 3 | 3 | i | 6 | 28 | -1 | x | 12
Cc1cc(=O)oc2c1ccc1ccccc12 | 0 | 3 | i | -3 | -11 | 4 | -7 | -26
O=c1c(C/C=C/c2ccccc2)c(O)nc2n1CCCS2 | -1 | 1 | i | -7 | 20 | -2 | 1 | -1
COc1ccc(S(=O)(=O)N2CCCCCC2)cc1N(C)S(=O)(=O)c1ccccc1 | -2 | -11 | i | -9 | 51 | -2 | x | 35
COc1cccc(NC(=O)C2CC2)c1 | 0 | 2 | i | x | -14 | x | -11 | 18
CCOC(=O)COc1cccc2c(=O)n(CC(=O)N3CCN(C(=O)OCC)CC3)ccc12 | 10 | 5 | i | 8 | -3 | 11 | -16 | 7
O=[N+]([O-])c1cc([N+](=O)[O-])c(Oc2ccc(Cl)c3cccnc23)cc1NN1CCCCC1 | 3 | -3 | i | 0 | 18 | 7 | -5 | -5
CN1CCN(CC(=O)NC2CCCCC2)CC1 | -2 | 3 | i | -5 | -12 | 15 | -6 | -114
O=C(OCc1cn([C@@H]2CN(C(=O)C3CCCCC3)[C@@H](c3ccc(Cl)cc3)C[C@H]2O)nn1)c1ccccc1 | 2 | 5 | x | x | x | x | -4 | -63
COC(=O)CCCC(=O)N1CCCC(N(C)CCc2ccccc2)C1 (stereo unspecified) | 1 | -5 | i | -8 | 5 | 3 | -7 | 3
Cc1nnc(SCC(=O)NNC(=O)c2ccco2)n1-c1cccc(Cl)c1 | 1 | 0 | i | -8 | 0 | 0 | x | 4
Cc1ccc(/C=C2\SC(=S)N(CCCC(=O)N3CCOCC3)C2=O)cc1 | 1 | -2 | i | -11 | -6 | 0 | -28 | 12
CC1CN(CCOCCSc2ccc(Cl)cc2)CC(C)O1 (stereo unspecified) | 2 | 4 | i | 10 | x | 20 | -4 | 7
CCCS(=O)(=O)c1nc(S(=O)(=O)c2ccc(C)cc2)c(NCc2ccco2)s1 | -5 | -4 | i | 2 | -26 | -14 | x | -6
CCCCn1c2c(c(=N)c3c1CCC3)CCC2 | -10 | -25 | x | 4 | -9 | 49 | -14 | x
CN(Cc1ccncc1)C1CC(=O)N(c2ccc(F)cc2)C1=O (stereo unspecified) | 4 | 7 | i | -3 | -9 | 3 | -17 | 34
Cc1cn(CC(=O)NCc2ccccc2)c(=O)[nH]c1=O | 2 | 4 | x | x | x | x | -18 | -7
O=C(NCCCN1CCOCC1)/C(=C/c1cccnc1)NC(=O)c1ccccc1 | -1 | 3 | i | 5 | 2 | -7 | x | -11
COC(=O)COc1ccc(S(=O)(=O)N2CCCCCC2)cc1 | 3 | 6 | i | 15 | 4 | -7 | x | -9

Part of the list above in order of molecular weight, low to high.
SMILES | MT1-MMP act inh | MT1-MMP act inh RFP | Rce1 inhib | eIF4H FP inh | CSC inhib | PABP polyA inh | UUG fidelity | Env fusion inh | others
CN(Cc1ccncc1)C1CC(=O)N(c2ccc(F)cc2)C1=O (stereo unspecified) | 4 | 7 | i | -3 | -9 | 3 | -17 | 34
COC(=O)COc1ccc(S(=O)(=O)N2CCCCCC2)cc1 | 3 | 6 | i | 15 | 4 | -7 | x | -9
Cc1ccc(/C=C2\SC(=S)N(CCCC(=O)N3CCOCC3)C2=O)cc1 | 1 | -2 | i | -11 | -6 | 0 | -28 | 12

(list continues)
SMILES | MT1-MMP act inh | MT1-MMP act inh RFP | Rce1 inhib | eIF4H FP inh | CSC inhib | PABP polyA inh | UUG fidelity | Env fusion inh | others
CN(C(=O)CSc1nnc(Cc2ccccc2F)n1N)C1CCCCC1 | 0 | 6 | x | x | 3 | x | x | 3
CC(=O)[C@@]1(O)CC[C@H]2[C@@H]3CCC4=CC(=O)CC[C@]4(C)[C@H]3[C@@H](O)C[C@@]21C | 4 | -1 | i | 1 | -7 | -4 | -3 | i
COc1ccc(CCC(=O)N2c3ccccc3CC2C)cc1 (stereo unspecified) | -1 | -3 | i | 9 | -3 | -7 | -15 | -116
CCNC(=S)NNC(=O)c1cc(-c2cccc(OC)c2)nc2ccccc12 | 0 | 0 | i | 19 | 5 | 8 | x | -18
Cc1cc(C)c(S(=O)(=O)N(C)c2ccccc2)c(C)c1 | 0 | -3 | i | -3 | 9 | 50 | -9 | 11 | eIF4H FP inh retest=2;PABP polyA inh retest=3
CCC1CCCCN1C(=O)CCS(=O)(=O)c1ccc2c(c1)CCN2C(C)=O (stereo unspecified) | 0 | -3 | i | -8 | 4 | -2 | -29 | -5
Cc1ccc(C(=O)COC(=O)c2ccc(O)cc2)cc1 | -3 | -11 | i | 6 | -4 | -6 | x | -95
CCN(CC)S(=O)(=O)c1ccc(C(=O)N2CCN(c3ncccn3)CC2)cc1 | -1 | 0 | i | 4 | -10 | 12 | -21 | -8
c1coc(-c2nnc3sc(C4CCCCC4)nn23)c1 | 6 | 0 | i | -1 | -13 | 6 | 0 | -40
O=C(CCC(=O)N1CCN(C2CCCC2)CC1)Nc1nnc(C(F)(F)F)s1 | 4 | 3 | x | 2 | x | -1 | -4 | x
CCc1c(O)nc(SCC(=O)Nc2nc3ccccc3s2)n(-c2ccc(C)cc2)c1=O | -1 | -2 | i | -2 | 11 | -7 | -8 | -1
COc1ccc(C(=O)OCc2c(C)noc2C)cc1 | 1 | 2 | i | -11 | -31 | 21 | x | -7
CC1(c2cccc(Br)c2)NC(=O)N(CC(=O)Nc2ccc3c(c2)OCCO3)C1=O (stereo unspecified) | 2 | -1 | x | x | -3 | x | -11 | -4
CCOc1ccc(-c2nn3c(-c4ccc(F)cc4)nnc3s2)cc1 | 1 | -1 | i | x | -8 | x | -3 | -2
NC(CCc1ccccc1)c1csc(Nc2ccc(C(=O)NCCCO)cn2)n1 (stereo unspecified) | -5 | 4 | x | x | x | x | -1 | 2
CCOC(=O)c1cnc2c(cnn2C)c1NCCC(O)C(F)(F)F (stereo unspecified) | 0 | -1 | i | -3 | -11 | -2 | -11 | -43
Cc1ccc(NC2CCCN(C(=O)c3ccc(-n4ccnc4)cc3)C2)cc1C (stereo unspecified) | -1 | -1 | x | -3 | -3 | -7 | -6 | 3
COc1ccccc1C(CNC(=O)CN1C(=O)NC(C)(c2ccc3ccccc3c2)C1=O)N1CCCC1 (stereo unspecified) | -3 | -2 | x | x | x | x | -3 | 11
COCCNC(=O)c1ccc(C)c(NC(=O)C2=C(C)OCCS2)c1 | -8 | 2 | i | -3 | -5 | 2 | 11 | 7
N#C/C(=C\C=C\c1ccccc1)C(=O)NCc1cccnc1 | -6 | -10 | i | 0 | x | 1 | x | -10
CCC1Nc2ncnc(N3CCCCC3)c2N(Cc2ccc(Cl)cc2)C1=O (stereo unspecified) | -1&4 | -3&1 | x | x | x | x | 0&-17 | 13
COc1ccc(-n2c3c(cc(C(=O)NCc4ccco4)c2=O)C(=O)CC(C)(C)C3)cc1 | -2 | -1 | i | -1 | 14 | -5 | x | 13
CC1CCc2sc(C(=O)NCC(c3ccco3)N3CCCCC3)cc2C1 (stereo unspecified) | -1 | 1 | x | x | x | x | -2 | 31
Cc1cc(=O)n2nc(N3CCCC(C(=O)NCc4cccc(Br)c4)C3)sc2n1 (stereo unspecified) | -1 | 3 | i | -9 | -5 | 1 | 0 | 8
CCC(=O)NCCCCNC(=O)CC | 0 | 2 | i | 1 | 11 | 0 | -8 | -56
O=C1CSC(=Nc2ccc(Cl)cc2)N1Cc1ccco1 | -2 | -5 | i | 1 | 25 | 1 | x | 9
Cn1c(=O)c2c(O)c(C=NCc3ccccc3)c(=O)n(C)c2n(C)c1=O | 1 | 1 | i | -1 | -5 | -2 | -7 | -9
CCCNC(=O)CCn1c(=S)oc2ccccc21 | 1 | 3 | i | -1 | -10 | 10 | x | -1
Cc1ccccc1C(=O)NNC(=O)CCc1ccccc1 | -2 | 4 | i | 2 | -8 | 3 | -6 | 1
Cc1c(C(=O)NN)nn(-c2ccc(F)cc2)c(=O)c1C#N | -1 | 3 | i | 6 | 11 | 3 | -6 | -1
CN(CC1CCOCC1)C(=O)CC1C(=O)NCCN1Cc1ccc(F)c(F)c1 (stereo unspecified) | -4 | 4 | i | 7 | -9 | 6 | -7 | 2
O=C(c1cc([N+](=O)[O-])ccc1N1CCOCC1)N1CCCCC1 | 3 | 6 | i | -1 | -18 | -6 | x | 11
CCOC(=O)C1CCN(Cc2coc3c(Cl)cc(Cl)cc3c2=O)CC1 | -4 | 1 | i | 0 | 9 | 2 | -4 | x
C/C(=N\NC(=O)c1nnn(-c2nonc2N)c1CN(C)c1ccccc1)c1ccccn1 | 3 | -3 | i | 23 | 105* | 15 | -26 | x
COc1ccc(CNC(=O)CSc2nc3ccccc3n2C(C)=O)cc1 | 1 | 1 | i | -12 | -1 | -6 | -3 | -3
CC(O)CNc1nc2c(c(=O)n(Cc3ccc(Cl)cc3)c(=O)n2C)n1C (stereo unspecified) | -3 | 0 | i | -3 | 0 | 1 | -3 | -12
O=C1CCCC2=C1C(c1cccs1)n1nc(SCc3ccc(C(=O)O)cc3)nc1N2 (stereo unspecified) | 2 | 5 | i | -6 | -3 | 3 | x | -5
Cc1cc(=O)oc2cc(Nc3ccccc3)ccc12 | -3 | 4 | i | 11 | -16 | 4 | -1 | -69
